Screening results (PubChem)
Insulin prom inh – TRM-6 insulin promoter activity inhibition; TRM-6 cells (human fetal islet line), insulin promoter-eGFP reporter, imaging; reporter expression induced with tamoxifen; inhibition, % at 2 µM; hit rate 0.9% among 130,000; AID 1273;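 active = inhibition above the mean plus 3 SD, with well images judged a real hit on visual review, cut at about 60% in these data, passing the limit was not always enough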
RGS16-Gao HTS – regulators of human RGS16-Galphao interaction. binding response (% of control), % at 10 µM. AID 1441. hit rate 0.38% among 220,000. bead-based flow cytometry RGS16-Galphao binding, fluorescence; actives lie on both sides;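 active = below 25% or above 175%, edge rows of some plates excepted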;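 also: Galphao activated by GDP with aluminum fluoride before binding; 100% = wells without compound and 0% = beads without RGS; some results beyond the cut were filed as inactive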
Target sequence (O15492 whole entry, looked up): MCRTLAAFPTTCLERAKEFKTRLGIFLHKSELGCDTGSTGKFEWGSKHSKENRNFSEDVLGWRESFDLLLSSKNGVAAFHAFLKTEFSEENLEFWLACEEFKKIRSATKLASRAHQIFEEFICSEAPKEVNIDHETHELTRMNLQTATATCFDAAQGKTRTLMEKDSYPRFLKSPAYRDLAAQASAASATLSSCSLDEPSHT
Target sequence (P09471 whole entry, looked up): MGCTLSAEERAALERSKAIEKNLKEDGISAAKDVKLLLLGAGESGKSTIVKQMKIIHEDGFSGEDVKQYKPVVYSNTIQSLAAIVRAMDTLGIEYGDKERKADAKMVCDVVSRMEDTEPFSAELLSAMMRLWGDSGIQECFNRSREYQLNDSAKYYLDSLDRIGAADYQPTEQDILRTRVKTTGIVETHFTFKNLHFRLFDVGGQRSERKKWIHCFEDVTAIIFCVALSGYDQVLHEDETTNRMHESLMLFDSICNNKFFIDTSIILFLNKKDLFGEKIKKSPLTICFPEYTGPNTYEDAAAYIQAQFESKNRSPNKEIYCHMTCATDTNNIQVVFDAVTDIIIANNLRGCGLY
HSV augment – increases HSV replication in cells. maximum fold increase. hit rate 0.005% among 220,000. HSV replication augmentation in cells, fold increase;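 active = peak rise of 1.5-fold or more in the series; tested in PC3 cells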;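 also: first round at 10 µM; read as green reporter fluorescence; hits show the peak of a series up to 25 µM; 1 = signal of infected wells without compound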
GALR2 agonist – agonists of human galanin receptor 2 (GALR2). GALR2-expressing cells, agonist activation read-out. activation, %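 (tested at 5 µM)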. hit rate 0.48% among 140,000;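 active = above mean plus 3 SD of all compounds, about 5% in these data, not always enough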;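 also: 0% = vehicle buffer wells and 100% = reference agonist at full effect; tested in CHO reporter cells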
Target sequence (O43603 whole entry, looked up): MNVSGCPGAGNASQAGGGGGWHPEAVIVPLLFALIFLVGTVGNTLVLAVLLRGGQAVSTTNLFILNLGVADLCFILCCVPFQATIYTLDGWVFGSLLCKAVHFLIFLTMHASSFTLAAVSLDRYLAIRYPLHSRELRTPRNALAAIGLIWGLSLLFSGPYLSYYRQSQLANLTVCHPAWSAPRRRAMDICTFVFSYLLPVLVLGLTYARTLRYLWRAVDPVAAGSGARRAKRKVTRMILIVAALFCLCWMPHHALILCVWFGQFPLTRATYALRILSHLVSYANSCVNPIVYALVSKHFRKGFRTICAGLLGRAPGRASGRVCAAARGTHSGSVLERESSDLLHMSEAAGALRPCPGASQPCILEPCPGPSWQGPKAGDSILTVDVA
PKD1 kinase inh – PKD1 (human) kinase inhibition | Q15139 | PKD1 kinase fluorescence polarization assay | inhibition, %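 (about 10 µM by stock and volumes)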 | hit rate 0.056% among 200,000;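 active = inhibition of 50% or more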;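 also: controls were vehicle for no effect and a reference inhibitor for full effect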
Insulin prom inh cell count – further read-out of Insulin prom inh, marked with its call; normalized cell count, %; measured here: cell count, toxicity; reference of the scale not given here;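 cells exposed to compound for 48 h; stained nuclei by imaging scaled within each plate; lower means fewer cells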
HSV augment primary fold – recorded beside HSV augment, whose call it bears; fold increase; compound at 10 µM; measured here: primary screen fold increase 10 uM; tested in PC3 cells;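 GFP signal in the first replicate; 1 = infected wells without compound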
An asterisk follows results filed as active; i = inactive; x = not tested or not shown.

SMILES | Insulin prom inh | Insulin prom inh cell count | RGS16-Gao HTS | HSV augment | HSV augment primary fold | GALR2 agonist | PKD1 kinase inh
CC(C)CNC(=O)COC(=O)c1cccc(S(=O)(=O)NCC(F)(F)F)c1 | x | x | 98 | i | 0.95 | x | x
CCOC(=O)N1CCC(NC(=O)CCC(=O)N2CC(C)Oc3ccccc32)CC1 (stereo not drawn) | x | x | 102 | x | x | -2.5 | -11
O=C(O)c1ccccc1S | 29 | 106 | 102 | x | x | -0.8 | 4
CNC(=O)CSc1nc2c([nH]c3ccccc32)c(=O)n1CCOC | x | x | 102 | i | 0.9 | x | -3
O=C(Nc1cccc(-c2cnc3ccccc3n2)c1)c1ccco1 | 14 | 120 | 83 | i | 0.91 | -0.9 | 1
COc1ccccc1C(=O)Nn1c(C2CCC2)nc2ccccc2c1=O | x | x | 102 | i | 0.73 | -0.5 | -1
COCc1nnc(NS(=O)(=O)c2ccccc2)s1 | 6 | 44 | 108 | i | 0.95 | -1.7 | 2
CC(C[N+](C)(C)C)OC(N)=O (stereo not drawn) | 27 | 101 | 97 | i | 0.77 | 0.2 | -14
CCOC(=O)c1oc2c(c1C)C(=O)CCC2 | 11 | 128 | 99 | i | 0.91 | -1.5 | -16
CCCCCCNC(=O)CC(c1ccccc1)c1cc(Br)ccc1O (stereo not drawn) | -295 | 63 | 42 | i | 1 | -1.6 | 1
COc1ccc(C(=O)/C=C/Nc2ccc(C)cn2)cc1OC | 27 | 151 | 107 | i | 0.96 | 0.2 | -7
Nc1cccc(C(=O)OCC(=O)NC2CCCc3ccccc32)c1 (stereo not drawn) | x | x | 100 | i | 0.96 | x | -1
COC(=O)c1c(C)[nH]c(C)c1-c1cccc([N+](=O)[O-])c1 | 15 | 168 | 98 | i | 1 | x | 3
N/C(=N\OC(=O)c1cccs1)c1ccccc1 | 31 | 125 | 85 | i | 0.86 | 0.3 | -5
COC(=O)CNC(=O)/C=C/c1cc(Br)ccc1OC | 67 | 28 | 51 | i | 0.97 | x | -2
COC(=O)c1ccc2c(c1)C(C)(C)C(/C=C/c1ccc(OC)c(OC)c1OC)=[N+]2C | 3 | 98 | 94 | i | 0.71 | 0.2 | -5
C/C(=N\N1C(=O)CSC1=S)c1ccc(Br)cc1 | -8 | 222 | 101 | i | 1.1 | x | -11
CCC1Oc2ccccc2N(CC(=O)NCCCN2CCC(C)CC2)C1=O (stereo not drawn) | 19 | 79 | 98 | i | 0.98 | -1.2 | -15
CCOC(=O)N1CCN(CCC(=O)Nc2ccc(C)cc2)CC1 | 3 | 122 | 104 | i | 0.92 | -0.1 | -6
COc1ccc(NC(=O)C(NCC(C)C)c2ccccc2)cc1Cl (stereo not drawn) | -56 | 101 | 100 | i | 1.1 | x | -5
O=C(O)/C=C/c1ccc(S(=O)(=O)Nc2ccc(OCc3ccccc3)cc2)cc1 | x | x | 105 | i | 0.95 | x | x
O=C(O)CCn1cc(/C=C/C(=O)c2ccc(Cl)cc2)c(-c2ccc(Br)cc2)n1 | x | x | 104 | i | 0.74 | -0.4 | -5
O=C(NC1(C(F)(F)F)NC(=O)N(c2ccc(F)cc2)C1=O)c1ccncc1 (stereo not drawn) | -16 | 61 | 134 | i | 1 | -1.5 | -4
CCc1ccc(OCc2nnc(SCC(=O)N3CCN(c4ccccc4)CC3)o2)cc1 | 57 | 103 | 100 | i | 1.2 | -3.5 | -5
O=C(CN(Cc1ccccc1)C(=O)c1ccc2c(c1)OCCO2)NCc1ccc2c(c1)OCO2 | x | x | 97 | i | 0.8 | -1.0 | 6

Complete entries from above. Screens in order: Insulin prom inh, Insulin prom inh cell count, RGS16-Gao HTS, HSV augment, HSV augment primary fold, GALR2 agonist, PKD1 kinase inh
COc1ccc(C(=O)/C=C/Nc2ccc(C)cn2)cc1OC as listed: 27, 151, 107, i, 0.96, 0.2, -7
COC(=O)c1ccc2c(c1)C(C)(C)C(/C=C/c1ccc(OC)c(OC)c1OC)=[N+]2C as listed: 3, 98, 94, i, 0.71, 0.2, -5
O=C(O)/C=C/c1ccc(S(=O)(=O)Nc2ccc(OCc3ccccc3)cc2)cc1 as listed: x, x, 105, i, 0.95, x, x

4 of the compounds above, with values under each structure.
Sequence of screens: Insulin prom inh, Insulin prom inh cell count, RGS16-Gao HTS, HSV augment, HSV augment primary fold, GALR2 agonist, PKD1 kinase inh
- COc1ccc(C(=O)/C=C/Nc2ccc(C)cn2)cc1OC
→ 27, 151, 107, i, 0.96, 0.2, -7
- Nc1cccc(C(=O)OCC(=O)NC2CCCc3ccccc32)c1 (stereo not drawn)
→ x, x, 100, i, 0.96, x, -1
- CCCCCCNC(=O)CC(c1ccccc1)c1cc(Br)ccc1O (stereo not drawn)
→ -295, 63, 42, i, 1, -1.6, 1
- O=C(O)c1ccccc1S
→ 29, 106, 102, x, x, -0.8, 4

The results go on.
SMILES | Insulin prom inh | Insulin prom inh cell count | RGS16-Gao HTS | HSV augment | HSV augment primary fold | GALR2 agonist | PKD1 kinase inh
COC(=O)c1sccc1NC(=O)c1ccc(OC)c(OC)c1 | -17 | 55 | 104 | i | 0.85 | 0.5 | 5
CC(=O)c1ccn(S(=O)(=O)c2ccccc2)c1 | 13 | 86 | 105 | i | 0.99 | -0.9 | 10
Cc1nnc(Oc2ccccc2)c2ccccc12 | -9 | 44 | 111 | i | 0.9 | 0.1 | -10
c1ccc(Cn2nnnc2C(c2ccncc2)N2CCOCC2)cc1 (stereo not drawn) | x | x | 99 | i | 0.72 | -1.7 | -7
COc1ccc(/C=C/C(=O)NC(=S)N2CCN(c3ccccc3OC)CC2)cc1 | x | x | 99 | i | 1.1 | x | x
Cc1cccc(N2CCN(C(=O)Cn3nc(Cc4ccncc4)c4ccccc4c3=O)CC2)c1C | x | x | x | i | 0.98 | -0.6 | 3
O=C(Nc1nnc(-c2ccc3c(c2)CCCC3)o1)C1CCCCC1 | x | x | 103 | i | 0.97 | -1.5 | 6
O=C(CN1CCN(C/C=C/c2ccccc2)CC1)NCc1ccccc1 | x | x | 101 | i | 0.91 | x | 8
CC1CCN(c2ccc(NC(=S)NC(=O)c3ccc(-c4cccc([N+](=O)[O-])c4)o3)cc2)CC1 | 49 | 70 | 93 | i | 0.81 | -2.4 | -4
CCCCCC(=O)Nc1nc(C)c(-c2csc(Nc3ccc(Cl)cc3)n2)s1 | 16 | 98 | 102 | i | 0.88 | -4.8 | -5
O=C(O)CC(NC(=O)OCc1ccccc1)c1ccccc1 (stereo not drawn) | 17 | 90 | 110 | i | 0.95 | -1.0 | -3
O=C(Cc1ccccc1)N(c1ccc(F)cc1)C1C=CS(=O)(=O)C1 (stereo not drawn) | 7 | 172 | 99 | i | 0.95 | -3.0 | -1
CC(C)(C)CN1CCNC(=O)C1CC(=O)N1CCOc2ccccc2C1 (stereo not drawn) | x | x | 101 | i | 1.1 | x | -8
CC(=O)N1c2ccc(N=Cc3cc(Br)cc(Br)c3O)cc2CC1C (stereo not drawn) | x | x | 103 | i | 1 | x | x
O=[N+]([O-])c1cc(F)c(N2CCCCC2)cc1N1CCOCC1 | -31 | 113 | 80 | i | 0.92 | -1.8 | 0
CC(C)CCNC(=O)C(C)N(C(=O)c1snc(C(N)=O)c1N)c1cnc2ccccc2c1 (stereo not drawn) | 42 | 81 | 103 | i | 0.96 | x | 3
O=[N+]([O-])c1ccc([N+](=O)[O-])c(Nc2ccc(N3CCOCC3)cc2)c1 | x | x | 104 | i | 0.87 | x | -10
CCCCNC(=S)Nc1ccc2nc3n(c(=O)c2c1)CCCCC3 | 12 | 142 | 105 | i | 0.8 | 1.1 | -4
O=c1cc2c(nn1Cc1ccccc1Cl)-c1ccccc1CC2 | x | x | 95 | i | 0.98 | 0.6 | 3
NC1=NC(=O)/C(=C\c2ccc(O)c([N+](=O)[O-])c2)S1 | x | x | 108 | i | 0.94 | x | 5
CCCCC(SCC(=O)Nc1ccccc1)C(=O)O (stereo not drawn) | 36 | 75 | 109 | i | 1.1 | -0.1 | -5
CC1=C(C#N)C(C(F)(F)F)(C(F)(F)F)N=C(c2ccco2)N1 | 38 | 170 | 101 | i | 0.84 | -1.2 | -8
O=C(Nc1ccccc1C(=O)O)c1ccc2ccccc2n1 | -13 | 98 | 89 | i | 0.96 | -1.2 | -4
COc1cc(S(=O)(=O)N(Cc2cccnc2)Cc2ccco2)ccc1-n1cnnn1 | 31 | 121 | 94 | i | 0.89 | -0.8 | -8
O=Cc1ccc2oc3nc4n(c(=O)c3c(=O)c2c1)CCCS4 | -6 | 61 | 83 | i | 0.91 | -1.8 | 8

The list goes on:
SMILES | Insulin prom inh | Insulin prom inh cell count | RGS16-Gao HTS | HSV augment | HSV augment primary fold | GALR2 agonist | PKD1 kinase inh
O=C(NCCCN1CCOCC1)c1ccc2c(c1)N(Cc1ccccc1)CCS2 | x | x | 98 | i | 1 | x | x
CCn1c2ccccc2c2cc(NC(=O)C(C)C)ccc21 | -14 | 64 | 101 | i | 0.79 | -0.7 | -16
Cc1ccc(-n2c(=S)[nH]c3sc4c(c3c2=O)CCc2ccccc2-4)cc1 | x | x | 101 | i | 1 | -1.7 | 0
CCNC(=O)CC1C(=O)N(CC)C(=S)N1NC(=O)c1ccc(Cl)cc1 (stereo not drawn) | -68 | 70 | 82 | i | 0.88 | -0.3 | 3
COc1ccc(C2CC3(O)CC(C#N)(C(=O)N3)C2(C#N)C#N)cc1 (stereo not drawn) | x | x | 100 | i | 0.87 | x | x
COc1ccccc1OCCOc1ccccc1/C=N/n1cnnc1 | x | x | 93 | i | 0.86 | -0.5 | -6
CCN(CCCNC(=O)CCCCn1c(=O)[nH]c2ccccc2c1=O)c1ccccc1 | x | x | 102 | i | 0.94 | -0.8 | 0
Cc1ccc(Cl)cc1NC(=O)COC(=O)CC1CC2CCC1C2 (stereo not drawn) | -28 | 133 | 104 | i | 0.96 | -1.3 | 4
N#C/C(C(=O)N1CCCCC1)=C1\Nc2ccccc2S1 | 32 | 97 | 100 | i | 0.94 | -2.1 | -9
C=CCN(c1ccc(F)cc1)S(=O)(=O)c1cc(C(=O)OCC(=O)N(C)C2CCS(=O)(=O)C2)ccc1Cl (stereo not drawn) | x | x | 102 | i | 0.96 | x | x
O=S(=O)(Nc1ccncc1Cl)c1ccc2ccccc2c1 | 7 | 52 | 107 | i | 1 | x | -3
Cc1ccc(C)c(SCC(=O)Nc2cccc(S(=O)(=O)NC3=NCCCCC3)c2)c1 | -38 | 96 | 108 | i | 0.84 | -1.8 | -1
COc1ccccc1-n1c(CNC(=O)c2ccco2)nnc1SCC(=O)Nc1ccc(F)cc1 | -35 | 93 | 79 | i | 1.1 | -1.0 | -8
COc1cccc(/C=C/C(=O)OCC(=O)c2c[nH]c3ccccc23)c1OC | -219 | 94 | 104 | i | 0.92 | -1.2 | 0
CC(C)(C)NS(=O)(=O)c1ccc(CCC(=O)Nc2cc(Cl)ccc2Oc2ccccc2)cc1 | -69 | 65 | 95 | i | 0.84 | -2.4 | -6
CCOc1ccc(NC(=O)c2cc(SC)ccc2Cl)cc1 | -59 | 109 | 106 | i | 0.89 | 0.1 | -6
Clc1ccccc1-c1nc(-c2ccccc2)n[nH]1 | -3 | 128 | 100 | i | 0.89 | -1.4 | -1
COC(=O)c1ccc2c(=O)n(CCCN3CCCC3=O)c(=S)[nH]c2c1 | 3 | 138 | 106 | i | 0.94 | 4.4 | 4
O=C(CNc1cccc(C(F)(F)F)c1)N/N=C/c1cn(-c2ccccc2)nc1-c1ccccc1 | 0 | 104 | 47 | i | 0.67 | 0.7 | -4
Clc1ccccc1Cc1noc(CN2CCN3CCCC3C2)n1 (stereo not drawn) | x | x | 110 | i | 1 | x | -2
CC(=O)Nc1ccc(N2CCCCC2)c(C(=O)Nc2cccc(C)c2)c1 | -10 | 140 | 100 | i | 0.88 | 1.5 | -4
Cc1ccc(-n2c(P(C)(=O)O)nc3ccccc32)cc1 | x | x | 105 | i | 0.97 | x | -2
COCCNC(=O)CSc1nc(-c2ccc(OC)c(OC)c2)cc(C(F)(F)F)n1 | 17 | 72 | 100 | i | 0.84 | 1.4 | -9
CCOC(=O)c1ccc(N2CN(CC)CNC2=S)cc1 | -13 | 110 | 101 | i | 0.99 | 0.7 | 3
Cc1ccc(S(=O)(=O)NCc2ccncc2)c(C)c1C | -19 | 78 | 115 | i | 0.93 | x | -8
CCc1ccccc1N1C(=O)CC(N2CCc3ccccc32)C1=O (stereo not drawn) | x | x | 99 | i | 1.1 | x | 1
Cc1ccc(-n2nnnc2CSc2nnc(-c3ccc(O)cc3)o2)cc1 | x | x | 108 | i | 1.1 | -0.7 | -3
CC(=O)c1sc(=S)n(-c2ccccc2)c1C | x | x | 97 | i | 1.1 | x | x
COCCCNC(=S)Nc1ccc2c(c1)OCCO2 | x | x | 86 | i | 1.1 | -1.8 | -9
CCOC(=O)CSCC(=O)Nc1ccc(S(=O)(=O)N2CCCCC2)cc1 | 27 | 142 | 101 | i | 0.94 | -1.6 | -4
